A1 apoptosis 2: A1 inhibitors via caspase activation, primary screen, cell-based, luminescence, HTS, two replicates. caspase activation, % (test concentration not listed). MEF A1-2A-BIM cells, caspase-Glo luminescence, 3 h; percent of clofoctol response, DMSO zero. 24,000 tested, under 10 active; in the data active means caspase activation above about 5.9%;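 further: wells of about 30 µL received 50 nL stock; the first replicate is given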
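System: mouse embryonic fibroblasts co-expressing A1 and BIM (A1-2A-BIM), primed for A1 dependence; amount: 2500 cells/well; doses: 50 nL pinned compound; schedule: cells settled overnight, compound exposure 3 h at 37 °C, 5% CO2; detection: Caspase-Glo 3/7 luminescence, 1 h at room temperature; read-out: Caspase-3/7 activation, seen as rise in luminescence signal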
* marks the source's active call; other numbers are inactive results. Only part of the results is shown; count on the stated rates, not on these rows.

SMILES | A1 apoptosis 2
C[C@@H]1CCCCO[C@@H](CN(C)C(=O)Nc2ccc3c(c2)OCO3)[C@H](C)CN([C@H](C)CO)C(=O)c2cc(NS(=O)(=O)c3ccccc3)ccc2O1 | -1.0
O=C(N/N=C/c1ccc(Br)s1)c1ccccc1O | -8.9
C[C@H](CO)N1C[C@H](C)[C@H](CN(C)C(=O)Nc2ccc(F)cc2)Oc2ncc(-c3cccc(C(F)(F)F)c3)cc2C1=O | -0.7
C[C@H]1CN([C@@H](C)CO)C(=O)c2cc(NC(=O)c3ccncc3)ccc2O[C@@H]1CN(C)S(=O)(=O)c1ccccc1 | -0.3
COc1ccc(S(=O)(=O)Nc2ccc3c(c2)C(=O)N([C@@H](C)CO)C[C@@H](C)[C@@H](CN(C)Cc2ccc(C(F)(F)F)cc2)O3)cc1 | -0.8
C[C@H]1CN([C@@H](C)CO)C(=O)Cc2cc(NC(=O)Nc3ccc(C(F)(F)F)cc3)ccc2O[C@@H]1CN(C)C(=O)NC1CCCCC1 | -0.2
C[C@H]1CN([C@@H](C)CO)C(=O)c2cc(NC(=O)Nc3ccccc3)ccc2O[C@@H]1CN(C)C(=O)Nc1ccc(F)cc1 | -0.4
C[C@H](CO)N1C[C@H](C)[C@@H](CN(C)Cc2ccc(C(F)(F)F)cc2)Oc2ccc(NC(=O)CCC(F)(F)F)cc2C1=O | 0.6
COc1ccc(S(=O)(=O)Nc2ccc3c(c2)C(=O)N([C@@H](C)CO)C[C@H](C)[C@@H](CN(C)Cc2ccc(C(F)(F)F)cc2)OCCCC[C@@H](C)O3)cc1 | -0.2
C[C@@H]1CN([C@H](C)CO)C(=O)c2cc(NC(=O)c3ccncc3)ccc2O[C@@H](C)CCCCO[C@@H]1CN(C)S(=O)(=O)c1ccc(F)cc1 | 0.3
C[C@H](CO)N1C[C@H](C)[C@@H](CN(C)C(=O)Nc2ccccc2)Oc2ccc(NC(=O)Cc3ccccc3)cc2C1=O | -0.2
Cc1ccc(S(=O)(=O)N(C)C[C@@H]2OCCCC[C@H](C)Oc3ccc(NC(=O)NC(C)C)cc3C(=O)N([C@@H](C)CO)C[C@H]2C)cc1 | -0.1
Cc1ccc(S[C@]2(C(=O)NC3CC3)CC(=O)N(C3CCCCC3)[C@@H]2c2ccc(CO)cc2I)cc1 | 0.6
C[C@H]1CN([C@@H](C)CO)C(=O)Cc2cc(NC(=O)NC3CCCCC3)ccc2O[C@H]1CN(C)Cc1ccc(C(F)(F)F)cc1 | 1.5
COc1ccc(NC(=O)N(C)C[C@@H]2Oc3ccc(NC(=O)Nc4c(C)noc4C)cc3CC(=O)N([C@@H](C)CO)C[C@@H]2C)cc1 | -0.4
Cc1noc(C)c1S(=O)(=O)Nc1ccc2c(c1)CC(=O)N([C@@H](C)CO)C[C@H](C)[C@H](CN(C)C(=O)Nc1ccc(F)cc1)O2 | 0.5
C[C@@H]1CCCCO[C@H](CN(C)S(=O)(=O)c2cn(C)cn2)[C@@H](C)CN([C@@H](C)CO)C(=O)c2cc(NC(=O)Nc3ccccc3)ccc2O1 | 0.1
C[C@H](CO)N1C[C@H](C)[C@@H](CN(C)C)Oc2c(NC(=O)Nc3ccc(F)cc3)cccc2C1=O | -0.8
C[C@@H]1CN([C@@H](C)CO)C(=O)c2cc(NS(=O)(=O)c3cn(C)cn3)ccc2O[C@@H](C)CCCCO[C@H]1CN(C)C | -0.3
C[C@H]1CN([C@@H](C)CO)C(=O)Cc2cc(NC(=O)c3ccncc3)ccc2O[C@@H]1CN(C)Cc1ccc(C(F)(F)F)cc1 | -1.0
C[C@H]1CCCCO[C@@H](CN(C)Cc2ccccc2)[C@@H](C)CN([C@@H](C)CO)C(=O)c2cc(NC(=O)Nc3ccc(F)cc3)ccc2O1 | 0.8
C[C@@H]1CN([C@H](C)CO)C(=O)c2cccc(N(C)C)c2O[C@H]1CN(C)S(=O)(=O)c1ccccc1 | 1.0
C[C@H](CO)N1C[C@H](C)[C@H](CN(C)C(=O)Nc2ccc(C(F)(F)F)cc2)Oc2ccc(NC(=O)NC3CCCCC3)cc2C1=O | -2.0
C[C@@H]1CN([C@H](C)CO)C(=O)c2cc(NC(=O)Nc3ccc(F)cc3)ccc2O[C@@H]1CN(C)S(=O)(=O)c1ccc(Cl)cc1 | 0.4
C[C@@H]1CN([C@@H](C)CO)C(=O)c2cc(NC(=O)Nc3ccc(C(F)(F)F)cc3)ccc2O[C@H]1CN(C)S(=O)(=O)c1ccc(F)cc1 | -0.2
CNC[C@H]1OCc2cnnn2CCCC(=O)N([C@H](C)CO)C[C@@H]1C | -0.3
Cc1noc(C)c1S(=O)(=O)Nc1cccc2c1O[C@@H](CN(C)C(=O)NC1CCCCC1)[C@@H](C)CN([C@@H](C)CO)C2=O | 0.3
C[C@H](CO)N1C[C@H](C)[C@@H](CN(C)S(=O)(=O)c2cccs2)Oc2c(NC(=O)c3ccc(-c4nccs4)cc3)cccc2C1=O | 1.3
O=S(=O)(NC1CCN(Cc2cccc(OCCO)c2)CC1)c1cc(C(F)(F)F)ccc1Cl | -1.0
C[C@@H]1CN([C@@H](C)CO)C(=O)c2cccc(NC(=O)C3CCOCC3)c2O[C@@H]1CN(C)Cc1ccc(C(=O)O)cc1 | -1.1
C[C@@H]1CN([C@@H](C)CO)C(=O)c2cc(NC(=O)Nc3cccc4ccccc34)ccc2O[C@@H](C)CCCCO[C@H]1CN(C)Cc1ccc2c(c1)OCO2 | 0.2
C[C@H](CO)N1C[C@H](C)[C@@H](CN(C)C(=O)NC2CCCCC2)Oc2ccc(NC(=O)Nc3cccc4ccccc34)cc2CC1=O | -0.2
O=C(CCCCCCC(=O)Nc1ccccc1O)N/N=C/c1cc(Br)cc([N+](=O)[O-])c1O | -1.3
C[C@@H]1CN([C@@H](C)CO)C(=O)Cc2cc(NS(=O)(=O)c3ccccc3)ccc2O[C@@H]1CN(C)C(=O)Nc1ccc2c(c1)OCO2 | -0.6
C[C@@H]1CN([C@H](C)CO)C(=O)c2cc(NC(=O)Nc3ccccc3)ccc2O[C@@H](C)CCCCO[C@@H]1CN(C)S(=O)(=O)c1cn(C)cn1 | 1.7
COc1ccc(NC(=O)Nc2ccc3c(c2)CC(=O)N([C@H](C)CO)C[C@@H](C)[C@H](CN(C)CC2CCCCC2)O3)cc1 | 1.5
COc1ccc(NC(=O)Nc2ccc3c(c2)CC(=O)N([C@@H](C)CO)C[C@H](C)[C@H](CN(C)C(=O)Nc2cccc4ccccc24)O3)cc1 | 0.8
COc1ccc(CN(C)C[C@H]2Oc3ccc(NC(=O)CCCN(C)C)cc3C(=O)N([C@H](C)CO)C[C@H]2C)cc1 | -0.1
Cc1noc(C)c1S(=O)(=O)N(C)C[C@H]1Oc2c(NC(=O)c3ccc(-c4nccs4)cc3)cccc2C(=O)N([C@H](C)CO)C[C@@H]1C | 0.4
C[C@@H]1CCCCO[C@H](CN(C)C(=O)CCC(F)(F)F)[C@@H](C)CN([C@@H](C)CO)C(=O)c2cc(NS(=O)(=O)c3cn(C)cn3)ccc2O1 | 0.4

Look-ups from the entries so far:
CNC[C@H]1OCc2cnnn2CCCC(=O)N([C@H](C)CO)C[C@@H]1C in A1 apoptosis 2 has -0.3
C[C@H]1CN([C@@H](C)CO)C(=O)Cc2cc(NC(=O)NC3CCCCC3)ccc2O[C@H]1CN(C)Cc1ccc(C(F)(F)F)cc1 in A1 apoptosis 2 has 1.5

Next structures
SMILES | A1 apoptosis 2
CC(C)NC(=O)Nc1ccc2c(c1)C(=O)N([C@H](C)CO)C[C@H](C)[C@H](CN(C)Cc1ccc3c(c1)OCO3)OCCCC[C@H](C)O2 | 0.5
CC(C)NC(=O)N(C)C[C@@H]1OCc2cnnn2CCCC(=O)N([C@@H](C)CO)C[C@H]1C | -0.5
Cc1noc(C)c1S(=O)(=O)N(C)C[C@H]1Oc2ccc(NC(=O)NC(C)C)cc2CC(=O)N([C@@H](C)CO)C[C@H]1C | -0.8
C[C@@H]1CN([C@H](C)CO)C(=O)c2cc(NC(=O)Nc3cccc4ccccc34)ccc2O[C@@H](C)CCCCO[C@H]1CN(C)C | -0.7
CC(C)NC(=O)N(C)C[C@H]1OCCCC[C@@H](C)Oc2ccc(NC(=O)Nc3ccc4c(c3)OCO4)cc2C(=O)N([C@@H](C)CO)C[C@H]1C | 0.1
C[C@@H]1CN([C@@H](C)CO)C(=O)c2cc(NC(=O)Cc3ccccc3)ccc2O[C@H]1CN(C)Cc1ccc(Cl)c(Cl)c1 | 0.2
COc1ccc(S(=O)(=O)Nc2ccc3c(c2)C(=O)N([C@H](C)CO)C[C@@H](C)[C@@H](CN(C)S(=O)(=O)c2ccc(Cl)cc2)O3)cc1 | 0.6
C#CCNC(=O)C1=C[C@@H](C2CCCCC2)C[C@@H](OCc2ccc(CO)cc2)O1 | -1.5
COc1ccc(S(=O)(=O)Nc2ccc3c(c2)C(=O)N([C@H](C)CO)C[C@@H](C)[C@H](CN(C)C(=O)Nc2c(C)noc2C)O3)cc1 | 0.1
COc1ccc(NC(=O)Nc2ccc3c(c2)C(=O)N([C@@H](C)CO)C[C@@H](C)[C@H](CN(C)C(=O)Nc2ccc4c(c2)OCO4)O3)cc1 | -0.8
C[C@@H]1CN([C@@H](C)CO)C(=O)c2cccc(NC(=O)Nc3ccc4c(c3)OCO4)c2O[C@H]1CN(C)C(=O)Nc1ccc(F)cc1 | 0.2
C[C@@H]1CN([C@@H](C)CO)C(=O)c2cc(NC(=O)c3ccncc3)ccc2O[C@@H](C)CCCCO[C@@H]1CN(C)C | -0.3
C[C@@H]1CN([C@@H](C)CO)C(=O)c2cc(NC(=O)Nc3ccc4c(c3)OCO4)ccc2O[C@@H]1CN(C)C(=O)Nc1ccccc1 | -0.1
C[C@@H]1CCCCO[C@H](CN(C)S(=O)(=O)c2ccc(Cl)cc2)[C@@H](C)CN([C@H](C)CO)C(=O)c2cc(NC(=O)C3CCCCC3)ccc2O1 | 0.9
C[C@@H]1CCCCO[C@@H](CN(C)C(=O)c2ccncc2)[C@@H](C)CN([C@@H](C)CO)C(=O)c2cc(NS(=O)(=O)c3ccccc3)ccc2O1 | -0.1
C[C@H]1CN([C@@H](C)CO)C(=O)c2cc(NC(=O)Nc3ccc4c(c3)OCO4)ccc2O[C@H]1CN(C)S(=O)(=O)c1cccs1 | -0.3
C[C@@H]1CN([C@@H](C)CO)C(=O)c2cc(NC(=O)Cc3ccccc3)ccc2O[C@H]1CN(C)Cc1ccncc1 | 1.0
Cc1noc(C)c1NC(=O)Nc1ccc2c(c1)CC(=O)N([C@H](C)CO)C[C@H](C)[C@H](CN(C)C(=O)Nc1cccc3ccccc13)O2 | 0.4
C[C@@H]1CN([C@H](C)CO)C(=O)c2cccc(NC(=O)C3CCOCC3)c2O[C@H]1CN(C)S(=O)(=O)c1cn(C)cn1 | 0.3
C[C@@H]1CN([C@H](C)CO)C(=O)c2cc(NS(C)(=O)=O)ccc2O[C@H]1CN(C)C(=O)NC1CCCCC1 | 0.6
C[C@@H]1CCCCO[C@@H](CN(C)S(=O)(=O)c2ccc(F)cc2)[C@H](C)CN([C@@H](C)CO)C(=O)c2cc(NS(=O)(=O)c3ccc(Cl)cc3)ccc2O1 | -0.3
CC(C)NC(=O)Nc1ccc2c(c1)C(=O)N([C@H](C)CO)C[C@H](C)[C@@H](CN(C)C(=O)Nc1cccc3ccccc13)OCCCC[C@H](C)O2 | -0.9
C[C@@H]1CN([C@H](C)CO)C(=O)c2cc(NC(=O)Nc3ccccc3)ccc2O[C@H]1CN(C)S(=O)(=O)c1cn(C)cn1 | 0.2
C[C@H]1CN([C@@H](C)CO)C(=O)Cc2cc(NC(=O)Nc3ccc4c(c3)OCO4)ccc2O[C@H]1CN(C)C(=O)NC1CCCCC1 | -0.3
C[C@@H]1CN([C@@H](C)CO)C(=O)c2cc(NS(=O)(=O)c3ccc(F)cc3)ccc2O[C@@H](C)CCCCO[C@@H]1CN(C)C | 0.7
COc1ccc(NC(=O)Nc2ccc3c(c2)C(=O)N([C@@H](C)CO)C[C@H](C)[C@@H](CN(C)S(=O)(=O)c2cn(C)cn2)O3)cc1 | 0.6
C[C@H](CO)N1C[C@H](C)[C@@H](CN(C)C)Oc2ccc(NC(=O)c3ccncc3)cc2C1=O | 0.8
Cc1ccccc1S(=O)(=O)N(C)C[C@H]1OCc2cnnn2CCCC(=O)N([C@@H](C)CO)C[C@H]1C | -0.2
COc1ccc(S(=O)(=O)Nc2ccc3c(c2)C(=O)N([C@@H](C)CO)C[C@H](C)[C@H](CN(C)C(=O)NC(C)C)O3)cc1 | -0.4
C[C@H]1CN([C@@H](C)CO)C(=O)c2cccc(NC(=O)CCCCCC(=O)Nc3ccccc3N)c2O[C@H]1CN(C)S(=O)(=O)c1ccc(F)cc1 | -0.9

Some of these compounds in order of number of heavy atoms, descending:
SMILES | A1 apoptosis 2
COc1ccc(S(=O)(=O)Nc2ccc3c(c2)C(=O)N([C@@H](C)CO)C[C@H](C)[C@@H](CN(C)Cc2ccc(C(F)(F)F)cc2)OCCCC[C@@H](C)O3)cc1 | -0.2
C[C@@H]1CN([C@H](C)CO)C(=O)c2cc(NC(=O)c3ccncc3)ccc2O[C@@H](C)CCCCO[C@@H]1CN(C)S(=O)(=O)c1ccc(F)cc1 | 0.3
C[C@@H]1CN([C@@H](C)CO)C(=O)Cc2cc(NS(=O)(=O)c3ccccc3)ccc2O[C@@H]1CN(C)C(=O)Nc1ccc2c(c1)OCO2 | -0.6
C[C@H]1CN([C@@H](C)CO)C(=O)Cc2cc(NC(=O)c3ccncc3)ccc2O[C@@H]1CN(C)Cc1ccc(C(F)(F)F)cc1 | -1.0
Cc1ccc(S[C@]2(C(=O)NC3CC3)CC(=O)N(C3CCCCC3)[C@@H]2c2ccc(CO)cc2I)cc1 | 0.6
CNC[C@H]1OCc2cnnn2CCCC(=O)N([C@H](C)CO)C[C@@H]1C | -0.3
